VACV Venus inh = qHTS for Stage-Specific Inhibitors of Vaccinia Orthopoxvirus: Venus Reporter Primary qHTS; Potency, µM (titrated, usually from 36.5 µM), for the others: top-dose activity change, negative = inhibition, most hits filed as inhibitors; hit rate 0.46% among 330,000; Vaccinia virus Venus reporter expression, fluorescence; active means well fitted inhibition curve with a large enough effect; inconclusive means small, poorly fitted or top-dose-only effect; inactive means no such curve, though single readings can be large or run the other way; tested in A549 cells; further: nearly all actives have a fitted effect of over 30% in size; inactives centre near -10
Vaccinia mCherry = qHTS for Stage-Specific Inhibitors of Vaccinia Orthopoxvirus: mCherry Reporter Primary qHTS; hit rate 0.63% among 310,000; Potency, µM (titrated, usually from 36.5 µM), without a hit: at the top dose activity change, negative = inhibition, actives largely listed as inhibitors; Vaccinia virus mCherry reporter infection, fluorescence; about a quarter of the inactives have no number; active = well fitted inhibition curve with a large enough effect; inconclusive = small, poorly fitted or top-dose-only effect; inactive = no such curve, though single readings can be large or run the other way; tested in A549 cells; further: nearly all actives have a fitted effect of over 35% in size; inactives centre near -10
* hit, by the source's call; i = inactive; ? = inconclusive; . = no result given; [ ] = another dose, or the depositor's remark. On the % scale 0 is the no-effect control and ±100 the full control effect; potency means the concentration at half of the fitted maximal effect.

SMILES | VACV Venus inh | Vaccinia mCherry
Cc1ccc(OCc2nc(-c3ccc(C(=O)N4CCN(c5cc(Cl)ccc5C)CC4)cc3)oc2C)cc1 | -16.6% | -29.7%
Cc1cc(C2C(C#N)=C(N)OC3=C2C(=O)CCC3)c(C)s1 (configuration not stated) | -13.5% | i
O=C(NC(Cc1ccccc1)C(=O)OCC(=O)N1CCc2ccccc21)c1ccco1 (configuration not stated) | -14.7% | .
O=C(NCc1ccc(F)cc1)c1ccc(CS(=O)(=O)Cc2ccccc2F)o1 | -16.1% | -5.9%
NS(=O)(=O)c1ccc(CCNCc2ccccc2OCc2ccc(F)cc2)cc1 | -15.8% | -2.1%
CN(CC(=O)NCc1ccc(Cl)cc1)S(=O)(=O)c1ccc2[nH]c3c(c2c1)CCCC3 | -22.2% | -26.0%
O=C(CSc1n[nH]c(=O)[nH]c1=O)N/N=C/c1ccccc1O | -1.9% | -7.2%
CCOc1ccc(CN2CCN(c3ncnc4scc(-c5ccccc5)c34)CC2)cc1 | -11.3% | i
N#CC1c2ccccc2-n2nncc2CN1S(=O)(=O)c1ccccc1 (configuration not stated) | -7.4% | -13.4%
N#Cc1c(NC(=O)Cn2c(=O)oc3ccccc32)oc(-c2ccccc2)c1-c1ccccc1 | 12.4% | -10.7%
CCOC(=O)c1nc(NCc2ccc(Cl)cc2)c2c(C)noc2n1 | -7.3% | -1.6%
COC(=O)Cc1ccc(NC(=S)NCc2ccccc2Cl)cc1 | -12.0% | -20.2%

Structures from the list above that contain a furan ring, fused or not (3):
SMILES | VACV Venus inh | Vaccinia mCherry
O=C(NC(Cc1ccccc1)C(=O)OCC(=O)N1CCc2ccccc21)c1ccco1 (configuration not stated) | -14.7% | .
O=C(NCc1ccc(F)cc1)c1ccc(CS(=O)(=O)Cc2ccccc2F)o1 | -16.1% | -5.9%
N#Cc1c(NC(=O)Cn2c(=O)oc3ccccc32)oc(-c2ccccc2)c1-c1ccccc1 | 12.4% | -10.7%

Further structures
SMILES | VACV Venus inh | Vaccinia mCherry
COc1ccccc1-c1sc2ccccc2c1-c1ccc(OCCN2CCCCC2)cc1 | 0.0% | i
Cc1cc(C)cc(NC(=O)CCS(=O)(=O)c2cccc3nsnc23)c1 | 2.4% | 6.4%
CCc1ccc(OCC(=O)NNC(=O)Cc2cccs2)cc1 | 0.1% | -14.4%
OCC[C@@H]1C[C@H](O)[C@@H](O)[C@@]2(OCc3ccccc32)O1 | -3.9% | i
CCN(CC(=O)Nc1c(F)cccc1F)C(=O)c1ccc(COc2ccccc2)cc1 | -4.0% | -15.3%
O=C(O)c1cccc(NC(=O)c2cn(-c3ccccc3)nc2-c2cc3ccccc3o2)c1 | -11.4% | -21.2%
CC(=O)c1ccc(NC(=O)c2nc(-c3ccccc3)n(-c3ccccc3)n2)cc1 | -13.0% | -19.7%
CCOc1ccc(-c2nonc2NC(=O)c2ccc(C)cc2)cc1OCC | -7.3% | -2.1%
CCC(=O)c1ccc(OCC(=O)N(C)CC(=O)Nc2cccc(F)c2)cc1 | -10.2% | -4.9%
CCN1CCN(C(=O)CN(c2cc(OC)ccc2OC)S(C)(=O)=O)CC1 | -12.3% | -15.8%
COc1ccc(/C=N/n2c(C)nnc2C)c(OC)c1OC | 2.6% | -2.9%
C[C@H](CO)N1C[C@H](C)[C@@H](CN(C)S(=O)(=O)c2cccs2)Oc2ccc(NC(=O)Cc3ccccc3)cc2C1=O | -19.0% | i
COc1cc(C(=O)C(=O)c2ccc(OC)c(OC)c2)ccc1O | 0.2% | -5.3%
COc1ccc(OCC(=O)Nc2nc(-c3ccc(Br)cc3)ns2)cc1 | -12.0% | -8.7%
COc1ccc(C2CC(c3ccc(OC)cc3)n3nc(NS(C)(=O)=O)nc3N2)cc1 (configuration not stated) | 2.3%[7.34 µM] | i[7.34 µM]
CC(=O)Nc1cc(NC(C)=O)cc(C(=O)NCC2(N3CCOCC3)CCCCC2)c1 | -2.2% | -6.7%
C/C(=N/NC(=O)CNC(=O)c1cccnc1)c1cccc([N+](=O)[O-])c1 | -8.2% | 6.3%
CCN1C(=O)[C@H]2[C@@H](c3ccc(-c4ccc(OC)cc4)cc3)N[C@@](C)(C(=O)OC)[C@H]2C1=O | -7.3% | i
COc1cccc(/C=N/n2c(-c3n[nH]c4c3CCC4)n[nH]c2=S)c1O | -12.1% | i
CCCOc1ccc(/C=C/C(=O)Nc2sc(C)c(C)c2C(=O)OCC)cc1OC | -10.3% | -5.4%
COc1ccc(Cl)cc1C(=O)NNC1CC(=O)N(Cc2ccc(Cl)cc2)C1=O (configuration not stated) | -7.0% | -0.6%
c1cncc(C2CC(c3cccs3)n3ncnc3N2)c1 (configuration not stated) | -5.8% | -19.8%[1.46 µM]
Cc1ccc(CCNC(=O)CN2C(=O)COc3ccc(S(=O)(=O)N4CCCCC4)cc32)cc1 | -2.8% | -5.2%
O=S(=O)(Cc1ccc(Cl)cc1)NCC1CCCO1 (configuration not stated) | -2.9% | -4.8%
CN1CCOCCOCCN(C)C(=O)N2CCOCCOCCN(CCOCC2)C1=O | -13.1% | ?
Cc1ccc(C)c(N2CCN(S(=O)(=O)c3ccc4c(c3)NC(=O)CS4)CC2)c1 | -17.5% | -26.4%
CC(C)C(N)c1csc(Nc2ccccn2)n1 (configuration not stated) | -8.4% | i
O=C(NN1C(=O)c2ccccc2NC1c1ccoc1)c1ccccc1 (configuration not stated) | -7.4% | i
Cc1noc(C)c1CCC(=O)O | -4.4% | i
Cc1ccnc(SCc2ccc(C(=O)O)cc2)n1 | -17.0% | i
COCCn1c(N)c(N(Cc2ccccc2)C(=O)c2cc(=O)[nH]c3ccccc23)c(=O)[nH]c1=O | -1.8% | -18.4%
FC(F)Oc1ccc(NC(=S)NCc2ccccc2)cc1 | ? | -2.1%
O=C(CSc1nnc(Cc2cc(=O)[nH]c(=O)[nH]2)n1-c1ccc(F)cc1)NC1CCCC1 | 9.9% | -4.8%
CC(=O)NC1=NN(C(C)=O)C2(S1)C(=O)N(C(C)=O)c1ccc(C)cc12 (configuration not stated) | -10.9% | i
O=C(c1cc([N+](=O)[O-])ccc1Cl)N1CCN(c2ccc(F)cc2)CC1 | -6.7% | ?
CCN(CC)CCn1c(NC(=O)c2ccc(C)cc2)nc2ccccc21 | -7.5% | -18.1%
COc1ccc(/C=N/NC(=O)C(C)n2cnc3ccccc3c2=O)cc1OC (configuration not stated) | 0.6% | -8.4%
O=C(NCC(c1cccs1)N1CCOCC1)c1ccc(Cl)c(S(=O)(=O)N2CCOCC2)c1 (configuration not stated) | 0.4% | i
Cc1ccc(C(=O)Nc2nnc(SCC(=O)N3CCCc4ccccc43)s2)cc1 | -6.3% | i
CCCCC/C=C\C/C=C\C/C=C\CCCCCCC(=O)NCCO | -15.9%[3.33 µM] | -6.6%[3.33 µM]
Cc1ccc(C)c(Oc2coc3cc(OC(=O)c4cccs4)ccc3c2=O)c1 | -8.5% | -13.7%
COc1ccccc1NC(=O)Nc1nc(CC(=O)Nc2ccc(F)c(F)c2)cs1 | -20.9% | ?
C=CCNC(=S)N1CCC(Cc2ccccc2)CC1 | -5.9% | i
COc1ccc(Cl)cc1C(=O)NCC(c1ccc(N(C)C)cc1)N1CCOCC1 (configuration not stated) | -16.0% | -15.2%
CCCOc1cccc(OCC(=O)Nc2nc3ccccc3[nH]2)c1 | -9.3% | 24.3%
CN(CC(=O)Nc1cccc(F)c1)C(=O)c1cn(-c2ccccc2)nc1-c1cccs1 | -24.8% | -29.2%
Cc1cc2c(s1)c1cnn(Cc3ccccc3F)c(=O)c1n2C | 3.4% | -9.4%
NC(=O)c1ccc(Oc2cccc3cccnc23)c([N+](=O)[O-])c1 | -5.1% | -5.5%
COc1ccc(CCCNC(=O)C2Cc3c(-c4ccc(NC(C)=O)cc4)ccnc3O2)cc1 (configuration not stated) | ? | i
Cc1ccc(C)c(NC(=O)C2CCCN2/C=C/C(=O)C(F)(F)F)c1 (configuration not stated) | -18.8% | i
O=c1[nH]c(O)c(N=Nc2ccc3c(c2)OCCO3)c(=O)[nH]1 | 2.5% | -9.0%
Cc1ccc2[nH]c(=O)c(CN(Cc3ccco3)C(=O)CN3CCCC(C)C3)cc2c1 (configuration not stated) | -3.7% | 1.6%
CN1CCN(C(=O)C(C(=O)c2ccc(F)cc2)n2ccccc2=O)CC1 (configuration not stated) | -11.2% | -12.3%
CC(C)(C)C(=O)Nc1ccc(N2CCCC2)cc1 | -3.2% | -9.5%
COc1cccc(CNCc2cccc(OC)c2O)c1O | -10.9% | ?
CCCC(=O)N(c1ccc2oc(C)c(C(C)=O)c2c1)S(=O)(=O)c1ccc(C(=O)O)cc1 | 5.0% | -5.4%
O=C1[C@H](Oc2ccccc2)[C@@H](c2ccccc2)N1c1ccncc1 | ? | -24.0%
Cc1cccc(NC(=O)CSc2nnc3ccc(-c4cccnc4)nn23)c1 | -4.7% | i
O=C(CNC(=O)c1ccccc1Cl)N/N=C/c1ccc([N+](=O)[O-])s1 | ? | ?
COC(=O)C1C(c2ccc(OC)cc2)NC(=O)NC1(O)C(F)(F)Cl (configuration not stated) | -14.7% | i

For convenience, six of the compounds above.
SMILES | VACV Venus inh | Vaccinia mCherry
COc1cccc(CNCc2cccc(OC)c2O)c1O | -10.9% | ?
CCCC(=O)N(c1ccc2oc(C)c(C(C)=O)c2c1)S(=O)(=O)c1ccc(C(=O)O)cc1 | 5.0% | -5.4%
O=C1[C@H](Oc2ccccc2)[C@@H](c2ccccc2)N1c1ccncc1 | ? | -24.0%
Cc1cccc(NC(=O)CSc2nnc3ccc(-c4cccnc4)nn23)c1 | -4.7% | i
O=C(CNC(=O)c1ccccc1Cl)N/N=C/c1ccc([N+](=O)[O-])s1 | ? | ?
COC(=O)C1C(c2ccc(OC)cc2)NC(=O)NC1(O)C(F)(F)Cl (configuration not stated) | -14.7% | i

(cont.)
SMILES | VACV Venus inh | Vaccinia mCherry
CC(=O)c1c(C)[nH]c(C(=O)OCc2ccccc2F)c1C | -9.4% | -14.6%
Cc1cccc(CNc2ncnc3ccc(-c4ccc(C(=O)N(C)C)cc4)cc23)c1 | 0.0% | 5.5%
CCCC(c1nnnn1C(C)(C)CC)N1CCN(C2CCCC2)CC1 (configuration not stated) | -10.3% | i
C(=N\N1CCN(c2ccccn2)CC1)/C1=C(N2CCOCC2)C(=C/c2ccccc2)/CC1 | -6.1% | ?
CCN1C(=O)[C@@H]2[C@H](C1=O)[C@@H]1C(=O)Nc3ccccc3C(=O)N1[C@@H]2c1ccc(OC)cc1 | -8.1% | i
CCN(CC)S(=O)(=O)c1ccc(N/N=C/c2ccccc2OCC(=O)O)c([N+](=O)[O-])c1 | -20.1% | ?
CC(C)=C1C2CCC1C1C(=O)N(c3ccc(C)c(C)c3)C(=O)C21 (configuration not stated) | -14.6% | -11.2%
CC(C)C[C@H](NC(=O)NCCc1ccc(Cl)cc1)C(=O)O | -10.8% | i
COc1cccc(SCc2noc(C(=O)NCc3ccccc3)c2C(=O)NCc2ccccc2)c1 | -6.5% | -9.4%
Cc1ccc(-c2nc3scc(CCNS(=O)(=O)c4ccc(F)c(C)c4)n3n2)cc1 | -7.8% | -14.8%
CCc1ccc(-n2c(SCc3cccc(F)c3)nc3[nH]ncc3c2=O)cc1 | -26.3% | -10.5%
CC(C)CNC(=O)NC(=O)COc1c(F)c(F)cc(F)c1F | -13.5% | .

Compounds shown so far containing a cyano group (3):
SMILES | VACV Venus inh | Vaccinia mCherry
Cc1cc(C2C(C#N)=C(N)OC3=C2C(=O)CCC3)c(C)s1 (configuration not stated) | -13.5% | i
N#CC1c2ccccc2-n2nncc2CN1S(=O)(=O)c1ccccc1 (configuration not stated) | -7.4% | -13.4%
N#Cc1c(NC(=O)Cn2c(=O)oc3ccccc32)oc(-c2ccccc2)c1-c1ccccc1 | 12.4% | -10.7%

(cont.)
SMILES | VACV Venus inh | Vaccinia mCherry
CCn1c(=O)cc(OCC(=O)NCc2cccs2)c2ccccc21 | 6.8% | -1.6%
O=c1c2ccccc2[nH]c(=S)n1CCN1CCc2ccccc2C1 | -13.2% | i
Nc1nc(Nc2cccc(Cl)c2)nc(NCCO)c1[N+](=O)[O-] | ? | ?
CSc1nc(=O)n(CCC#N)nc1SC | 3.6% | i
Cc1cccc(Cn2c(=O)n(CCCC(=O)NCc3ccccc3Cl)c(=O)c3ccccc32)c1 | -22.2% | -26.5%
CC(=O)c1cccc(N=Nc2c(C)[nH]c3ccccc23)c1 | -11.1% | -18.9%
CCOc1c(C)cnc2c1c(=O)n(CC(=O)NCC1CCCO1)c(=O)n2C (configuration not stated) | -8.2% | -11.8%
CC(C)Oc1ccc(C(=O)NC(C)(C)CO)cc1 | 0.1% | -8.6%
COCCn1c(SC(C)C(=O)Nc2ncc(Cl)cc2Cl)nc2ccccc21 (configuration not stated) | 11.9% | ?
COc1ccc(-n2c(SC(C)C(=O)Nc3ccc(NC(C)=O)cc3)nc3ccccc3c2=O)cc1OC (configuration not stated) | -17.5% | -5.1%
COC(=O)C1=C(c2ccc(OC)c(OC)c2)C[C@@H]2CC[C@H]1N2C(=O)NCCOc1ccc(OC)cc1 | -14.2% | i
CCN1CCn2c3c(c4cc(Br)ccc42)CCCC31 (configuration not stated) | -8.0% | .
CCCN1CCN(CCCNC(=O)Cn2cc3c(n2)CCCC3)CC1 | -2.5% | -0.2%
O=C(NCc1nnc(SCC(=O)N2CCOCC2)o1)c1c(F)cccc1Cl | 4.0% | -5.6%
COc1ccc(N2C(=O)Cc3ccccc3C2=O)cc1 | -14.4% | -12.5%

Screening data as filed in PubChem BioAssay.
